# Six1-Eya2 blk: Six1/Eya2 interaction inhibition | Q15475+O00167 | AlphaScreen GST-Six1/His-Eya2 binding, biochemical; hits give low values; control for the full effect not named in the record | activity change, % (test concentration not listed) | AID 651725 | hit rate 0.56% among 360,000; in the data active = activity change below about -65%; inconclusive = about -30% to -65%; inactive = above about -30%; also: % is scaled to controls: 0 for no effect and ±100 for the full control effect; compound concentration not given in the record
#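 AlphaScreen with GST-Six1 and His-Eya2 (5X mix: 250 nM and 500 nM), glutathione donor and nickel acceptor beads; buffer 50 mM Tris pH 8.0, 300 mM NaCl, 1 mM TCEP; 1 h at 37 C in the dark.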
# CtBP-E1A inh: CtBP/E1A binding inhibition. hit rate 0.49% among 340,000. activity change, % (concentration not given with the values). AlphaScreen GST-E1A/His-CtBP binding, 1536-well; hits give low values; control for the full effect not named in the record; in the data active means activity change below about -65%; inconclusive means about -30% to -65%; inactive means above about -30%; also: % is scaled to controls: 0 for no effect and ±100 for the full control effect
#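 Homogeneous bead-based format: GST-tagged E1A captured on glutathione donor beads, His-tagged CtBP on nickel acceptor beads; compounds precede bead addition by 2 h at 37 °C.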
# Sfp inh: inhibitors of Bacillus subtilis Sfp phosphopantetheinyl transferase; Q9F4F7; Biochemical Sfp PPTase activity, qHTS; Potency, µM, for inactives: max response, negative = inhibition, actives largely listed as inhibitors; hit rate 3.5% among 310,000; AID 1490; active = well fitted inhibition curve with a large enough effect; inconclusive = small, poorly fitted or top-dose-only effect, or another doubt; inactive = no such curve, though single readings can be large or run the other way;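 also: the enzyme is Sfp with the accession as filed and its product quenches rhodamine fluorescence; potency is read from the fitted curve at half-maximal effect; 0% = enzyme reaction without inhibitor and -100% = no enzyme wells; top concentration of the series not given in the record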
#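 Sfp 15 nM + cpd, 15 min RT; start w/ rhodamine-CoA 5 uM, BHQ-2-YbbR 12.5 uM (final); 50 mM Hepes pH 7.6, 10 mM MgCl2, 0.01% NP-40, 0.01% BSA; read 525/598 nm at 0 and 30 min.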
# PINK1 modulator: changes PINK1 expression. Potency, µM (series often up to 76.6 µM), without a hit: top-dose activation (PINK1 increase), usual class: activators. hit rate 0.2% among 410,000. PINK1 immunofluorescence, high-content cytometry, 24 h. AID 624263; active = well fitted activation curve with a large enough effect; inconclusive = small, poorly fitted or top-dose-only effect; inactive = flat fitted curve, though single readings scatter; cell line not stated here;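 also: potency is read from the fitted curve at half-maximal effect; % of control where 0% means no effect; nearly all actives have a fitted effect of over 65% in size; a mitochondrial uncoupler was the plate control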
#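 Decision-based qHTS: stable cells, 24 h exposure to five compound concentrations, CCCP as control. Fixed cells stained for PINK1 plus nuclear, mitochondrial and cell markers, cytometer read.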
# TRPV1 PAM: human TRPV1 potentiation. AID 540277. potentiation, % at 8.33 µM. Q8NER1. TRPV1-expressing cells, Fluo-8 calcium influx, capsaicin EC20 potentiation; host cell line not named in the record; control for the full effect not named in the record. hit rate 0.02% among 320,000; active means potentiation above 80%; inconclusive means 30% to 80%; inactive means below 30%; also: 0% is about no effect
#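 TRPV1-expressing cells were cultured overnight at 35.5C and loaded with Fluo-8 calcium dye for 40 to 90 min at room temperature. After a 10 s baseline, compound was added and calcium influx was read kinetically for 3 min (ex 480/em 520 nm).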
# D2 potentiator: human D2 receptor positive allosteric modulation; P14416; DiscoveRx D2 beta-arrestin cells, luminescence, 90 min; 100% = 57 uM dopamine signal; potentiation, % (no concentration beside the values); hit rate 0.23% among 360,000; AID 624464; active = potentiation of 50% or more; inconclusive = 30% to 50%; inactive = 30% or less;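 also: compound concentration not given in the record; tested on top of an EC20 dose of dopamine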
# Target sequence (P14416 whole entry, looked up): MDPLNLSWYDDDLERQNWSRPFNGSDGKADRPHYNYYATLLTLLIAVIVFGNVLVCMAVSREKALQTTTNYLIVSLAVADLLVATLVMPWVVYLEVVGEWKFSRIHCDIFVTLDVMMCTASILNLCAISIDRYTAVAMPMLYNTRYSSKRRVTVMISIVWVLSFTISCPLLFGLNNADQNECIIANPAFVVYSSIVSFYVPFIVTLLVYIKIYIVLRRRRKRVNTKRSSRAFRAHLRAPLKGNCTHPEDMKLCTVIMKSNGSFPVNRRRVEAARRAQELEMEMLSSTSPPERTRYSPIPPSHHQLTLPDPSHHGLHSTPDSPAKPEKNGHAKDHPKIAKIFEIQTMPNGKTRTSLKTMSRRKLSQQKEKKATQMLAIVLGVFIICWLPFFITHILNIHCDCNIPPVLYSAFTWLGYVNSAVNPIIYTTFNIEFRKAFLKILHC
#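 D2 cells co-treated with compound plus 50 nM dopamine (EC20) for 90 min at 37 deg C to detect potentiation. Beta-arrestin recruitment was read as enzyme-fragment luminescence after 1 h at ambient temperature. Full response was set by 57 uM dopamine.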
# D2 ag: activates the human D2 dopamine receptor | hit rate 0.084% among 360,000 | P14416 | activation, % (concentration not given with the values) | DiscoveRx PathHunter D2 beta-arrestin, luminescence, 90 min; 100% = 57 uM dopamine signal; in the data active = activation above about 40%; inconclusive = about 15% to 40%; inactive = below about 15%; also: compound concentration not given in the record; the text of the record calls up to 30% inactive
#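 DiscoveRx PathHunter D2 beta-arrestin cells (2,100/well) attached overnight, then compound-stimulated 90 min at 37 C in HBSS/10 mM HEPES/0.1% Tween-20 buffer; beta-galactosidase complementation read by luminescence after 1 h at ambient temperature. Dopamine 57 uM final (EC100) as control.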
# * marks the source's active call; other numbers are inactive results; ? = inconclusive; / = not tested or not shown; [ ] = dose if it differs, or a comment.
SMILES,Six1-Eya2 blk,CtBP-E1A inh,Sfp inh,PINK1 modulator,TRPV1 PAM,D2 potentiator,D2 ag
CC(C(=O)O/N=C(\N)c1cccnc1)c1ccc([N+](=O)[O-])cc1 (stereo not drawn),3,-18,7%,3.8%,8,0,-3.2
O=[N+]([O-])c1cccc(-c2nnc3cccc(Cl)n23)c1,6,5,8%,0.7%,-13,7,4.4
O=C(Nc1ccc(F)c(Cl)c1)c1ccccc1NC(=O)C1CCCCC1C(=O)O (stereo not drawn),6,-8,/,-2.5%,/,1,0.3
CN(C)C(=O)N1CCC(C(=O)NCC2CCCO2)CC1 (stereo not drawn),3,13,26%,-1.3%[38.3 µM],-10,1,-0.5
O=C(N/N=C/c1ccc(-c2cccc([N+](=O)[O-])c2)o1)c1cccs1,-18,/,7%,2.1%,3,-4,1.0
O=C(O)c1ccc(N/N=C/C=C/c2ccccc2[N+](=O)[O-])cc1,-13,-8,0%,1.3%,?,-12,-1.9
Cn1nc(-c2ccc(NCCO)c([N+](=O)[O-])c2)c2ccccc2c1=O,-1,-17,13%,0.9%,-11,-1,0.2
COCCN(C(=O)COC(=O)c1cc(C)n(-c2ccccc2)c1C)c1c(N)n(Cc2ccccc2)c(=O)[nH]c1=O,-8,-5,/,1.5%,-1,-14,-9.3
Cc1cc(NC(=O)C2CCN(C(=O)c3ccco3)CC2)ccc1Br,3,-10,/,6.5%,-17,-31,0.3
CCN(CC)C(=O)Cc1cc(C(=O)O)c2ccccc2n1,4,1,19%,-3.6%[38.3 µM],1,-7,-2.6

# Structural class, the entries above containing four or more nitrogen atoms.
SMILES,Six1-Eya2 blk,CtBP-E1A inh,Sfp inh,PINK1 modulator,TRPV1 PAM,D2 potentiator,D2 ag
CC(C(=O)O/N=C(\N)c1cccnc1)c1ccc([N+](=O)[O-])cc1 (stereo not drawn),3,-18,7%,3.8%,8,0,-3.2
O=[N+]([O-])c1cccc(-c2nnc3cccc(Cl)n23)c1,6,5,8%,0.7%,-13,7,4.4
Cn1nc(-c2ccc(NCCO)c([N+](=O)[O-])c2)c2ccccc2c1=O,-1,-17,13%,0.9%,-11,-1,0.2
COCCN(C(=O)COC(=O)c1cc(C)n(-c2ccccc2)c1C)c1c(N)n(Cc2ccccc2)c(=O)[nH]c1=O,-8,-5,/,1.5%,-1,-14,-9.3

# Continuation:
SMILES,Six1-Eya2 blk,CtBP-E1A inh,Sfp inh,PINK1 modulator,TRPV1 PAM,D2 potentiator,D2 ag
CCOC(=O)c1c(C)nc2sc3c(=O)n(-c4ccc(C(C)=O)cc4)cnc3c2c1-c1ccc(OC)cc1,5,6,1%,2.1%,-1,-6,-3.9
OC[C@H]1O[C@H](OC[C@H]2O[C@H](OC[C@H]3O[C@H](O[C@]4(CO)O[C@H](CO)[C@@H](O)[C@@H]4O)[C@H](O)[C@@H](O)[C@@H]3O)[C@H](O)[C@@H](O)[C@H]2O)[C@H](O)[C@@H](O)[C@H]1O,-1,6,/,-0.6%,5,-2,-1.2
CCOC(=O)CNC(=S)N(CCCN1CCN(C)CC1)Cc1cccs1,9,/,8%,-1.4%,-15,-7,-4.5
CN(C)Cc1c(C(=O)N/N=C/c2ccccc2OCc2c(F)cccc2Cl)nnn1-c1nonc1N,-10,-5,-13%,7.3%,-3,-4,7.5
Cc1ccccc1OC1(C)CCN(Cc2ccc(-c3ccccn3)cc2)C1 (stereo not drawn),-5,2,/,?,/,-13,7.2
O=C1OCCN1N1CCOC1=O,10,8,/,0.5%,/,-5,-0.6
CC(=O)Nc1cccc(N2C(=O)CCC2=O)c1,-2,-1,19%,1.9%,11,-4,-3.3
O=S(=O)(Nc1ccncc1Cl)c1cc(Cl)ccc1Cl,-3,-13,-3%,1.9%,-9,-3,9.4
CCOc1cc(C(=O)N2CCN(C/C=C/c3ccccc3)CC2)cc(OCC)c1OCC,-3,-3,15%,0.3%[38.3 µM],-19,-8,1.8
COc1ccc(CCn2c(C)cc(C(=O)COC(=O)c3ccc(NC(=O)CC#N)cc3)c2C)cc1,-22,-26,4%,-0.8%,9,25,-1.9
COc1ccc(-c2cc(=O)oc3cc(OCC(=O)NCC4CCC(C(=O)O)CC4)ccc23)cc1 (stereo not drawn),-14,?,12%,1.7%,-10,-12,-5.6
CCOC(=O)c1cc(CNC(=O)c2c(C)oc3c2CCCC3)c(C)o1,-2,0,-11%,0.3%,20,7,1.2
COc1cccc(NC(=O)c2cccc(S(=O)(=O)N3CCN(Cc4ccccc4)CC3)c2)c1,-12,-9,/,-3.7%,1,-5,6.9
COCCCNC(=O)CSC1=Nc2ccccc2C2=NC(c3ccccc3)C(=O)N12 (stereo not drawn),7,1,15%,-1.1%,-27,-5,-5.9
Cn1ccc(NC(=O)c2ccc(Cl)cc2)n1,11,-2,/,1.5%,-14,-1,9.0
CCOC(=O)c1c(N2C(=O)Nc3ccccc3N2O)n[nH]c1-c1cccc(Cl)c1,1,0,-17%,0.9%,?,1,-0.6
Cc1cc(C)cc(NC(=S)NCc2cccs2)c1,4,6,20%,-0.8%,-1,-23,-1.2
CCCNC(=O)C1(C)CCCN(C(=O)c2cc3ccccc3s2)C1 (stereo not drawn),2,4,/,-0.4%,/,-7,-5.9
COc1ccc(N2CCN(C(=O)NC(=O)c3ccc(Cl)cc3)CC2)cc1,-2,-18,14%,2.0%,-8,-13,-5.8
COc1ccc(C(C)=O)cc1CN1C(=O)C(C)ON=C1c1cccc(C(F)(F)F)c1 (stereo not drawn),-1,1,/,0.6%,/,-3,1.5
Cc1ccc(C(=O)CSc2ccc(-c3cccnc3)nn2)cc1,5,1,6%,2.0%,?,-8,3.2
O=c1[nH]c(SCc2cccc(Cl)c2)nc2ccccc12,3,9,13%,13%,2,2,-2.4
CCCN1C(=O)c2ccccc2NC1c1ccc(OC)cc1OC (stereo not drawn),-5,-12,-4%,/,-22,-22,-4.9
Cc1cc(Cl)ccc1NC(=S)NC(C)(C)C,1,5,-2%,2.6%,-7,-7,-13
CC(=O)N1CCN(S(=O)(=O)c2cccc(C(=O)NNC(=O)COc3ccc(F)cc3)c2)CC1,1,-15,/,-0.6%,2,-9,6.7
CN(C)c1ccc(CNC(=O)C2(C)Cc3c(-c4cccc(C(N)=O)c4)ccnc3O2)cc1 (stereo not drawn),-18,-7,/,7.5%,/,6,2.8
Cc1cc(=O)oc2cc(NC(=O)C(C)N3C(=O)C4CCCCC4C3=O)ccc12 (stereo not drawn),0,-1,/,0.6%,10,-9,0.2
O=C(Nc1ccc(C(=O)OC2CCCCC2)cc1)c1ccncc1,-3,2,-13%,?,-5,-4,7.5
Cc1cc(C(C)(C)C)ccc1OC(=O)C1=CC=CN2CCS(=O)(=O)N=C12,-4,7,/,2.4%,18,1,-4.5
CC(=O)Nc1cccc(C(=O)NNC(=O)c2n[nH]c(=O)c3ccccc23)c1,1,-6,/,-0.3%,-1,-5,-4.3
CCCCn1nc(C(=O)NCC2COc3ccccc3O2)c2ccccc2c1=O (stereo not drawn),5,7,/,0.3%,2,7,2.5
N#C/C(=C\c1cccnc1)C(=O)Nc1ccc(S(N)(=O)=O)cc1,8,5,3%,-1.6%,-5,-2,-0.1
Clc1ccsc1-c1ccc2ccccc2n1,74,65,-20%,2.5%,-20,-28,-3.3
c1ccc(Cc2nnc3sc(-c4ccncc4)nn23)cc1,1,5,-67%,-2.7%[38.3 µM],8,-11,-1.6
COCCn1c(=NC(=O)c2nc3ccccc3s2)sc2cc(S(C)(=O)=O)ccc21,-4,1,-3%,11%,-14,-23,-1.9
Cc1sc2ncn(CC(=O)NCCCC(=O)N3CCN(c4ccccc4F)CC3)c(=O)c2c1C,0,-6,1%,0.8%,4,-2,-1.7
C(CCc1nn[nH]n1)CCC1CCCCC1,1,3,/,0.9%,/,8,3.9
COC(=O)c1ccc(C2C(Oc3ccccc3)C(=O)N2CCc2ccc(F)cc2)cc1 (stereo not drawn),-2,11,4%,21%[38.3 µM],3,2,-1.5
CCCCn1c(N)c(N(CC(C)C)C(=O)c2cc(-c3ccncc3)nc3ccccc23)c(=O)[nH]c1=O,0,8,/,5.3%,0,13,7.7
O=C(Nc1cccc(NC(=O)c2ccc(-c3ccc(Br)cc3)o2)c1)c1ccco1,-11,-5,-18%,/,5,4,0.1
COc1ccc(CNC2CCN(Cc3ccccc3)CC2)cc1,-1,-13,13%,-0.4%,12,-5,0.4
CC(C)OP(=O)(c1ccc(N(C)C)cc1)C(O)c1ccc(Br)cc1 (stereo not drawn),18,-1,8%,0.9%,9,-2,-5.6
CCCN1CC(=O)N2C(c3cccc(OC)c3OC)c3[nH]c4ccccc4c3C[C@H]2C1=O (stereo partly drawn),2,/,-3%,5.9%,-9,-4,0.1
CCN1C(=O)c2cccc3c(N)ccc1c23,-13,-22,3%,17%,5,8,7.1
COc1ccc(OC)c(NC(=O)NCCN2CCN(c3ccccc3)CC2)c1,2,-11,1%,0.6%,21,-17,0.5
Cc1ccsc1C(=O)N1CCC1(C)C(=O)NS(=O)(=O)c1ccccc1 (stereo not drawn),-9,-12,/,1.6%,/,-19,-1.7
COc1ccc2c(c1)SCCC2=O,5,4,14%,-1.3%,8,-2,-0.6
Cc1cccc(OCC(=O)O/N=C(\N)Cc2ccc([N+](=O)[O-])cc2)c1,12,/,-6%,-0.4%,-10,-8,-2.6
Cc1occc1C(=O)N(C)CC1CCCN(CCc2ccc(Cl)cc2)C1 (stereo not drawn),-3,-6,/,-1.3%,/,-39,-0.4
CCC(C)(NC(=O)CNC(C)=O)C(=O)NC1CCCCC1 (stereo not drawn),10,2,30%,1.4%,1,1,-1.1

# (next part)
SMILES,Six1-Eya2 blk,CtBP-E1A inh,Sfp inh,PINK1 modulator,TRPV1 PAM,D2 potentiator,D2 ag
COc1ccc(C=NNC(=O)CCCC(=O)NN=Cc2ccc(OC)c(OC)c2)cc1OC,-7,-2,/,1.7%,/,-5,-0.1
CC(C)OCCCNC(=O)c1c(N)n(/N=C/c2ccccn2)c2nc3ccccc3nc12,-1,1,-13%,2.4%,-5,2,-3.2
NC(=O)c1cc(-c2cccnc2)nc2ccc(Br)cc12,3,0,2%,1.7%,-7,-3,0.0
CCCCCn1c(CNC(=O)c2cccs2)nc2ccccc21,-6,-8,-1%,-2.0%[38.3 µM],14,-31,-2.7
CC(C)Cn1c(=O)c(-[n+]2ccccc2)c([O-])c2ccccc21,3,-12,-12%,0.2%,-19,-7,-2.2
Cc1ccc(C)c(NC(=O)CCNS(=O)(=O)c2ccc3[nH]c(=O)oc3c2)c1,-7,/,6%,0.3%,11,-11,-3.2

# Not a hit list; about 3.7% have a hit in one of these screens.
